CSC inhib: cancer stem cell inhibition | cancer stem cell-like cells viability, luminescence | inhibition, % at 7.5 µM | actives 1.1% (n = 300,000);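 active means mean at 75% or more and at least half the replicates too; inconclusive means mean and replicates disagree; tested in HMLE shEcad cells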;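 further: 0% = median of negative and 100% = median of positive control wells; the first replicate is given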
eIF4H FP inh: inhibitors of RNA binding by human eIF4H | eIF4H fluorescence polarization binding assay | actives 0.94% (n = 290,000) | AID 2012 | inhibition, % at 35 µM | Q15056;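 active means 50% or more with normal probe brightness, or confirmed in later tests; inconclusive means above 50% with abnormal brightness, or retests that disagree; inactive means below 50% or failed in later tests; about a fifth of its hits are not listed in these tables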;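 further: calls also rest on retests at 20 µM and on dose response follow-up; 0% = protein and probe with vehicle and 100% = probe without protein; strong numbers were not always called active; many hits fall short of the cut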
PABP polyA inh: PABP-poly(A) binding inhibition; PABP-poly(A) RNA binding, fluorescence polarization; inhibition, % at 35 µM; AID 2014; actives 1% (n = 290,000);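 active means 50% or more with normal probe brightness, or confirmed in later tests; inconclusive means above 50% with abnormal brightness, or retests that disagree; inactive means below 50% or failed in later tests; about a fifth of its hits are not listed in these tables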;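 further: calls also rest on retests at 20 µM and on dose response follow-up; controls were probe without protein and protein plus probe with vehicle; some compounds called inactive have numbers as strong as hits; many hits fall short of the cut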
Rce1 inh: inhibitors of yeast Ras-converting enzyme; yeast membranes, quenched prenylated peptide cleavage fluorescence; actives 0.27% (n = 290,000); AID 2563; calls only; Q03530;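 active means fall in fluorescence gain of 50% or more versus controls, with final raw signal at or below 3038400; inconclusive means same 50% fall but final raw signal above 3038400; inactive means fall in fluorescence gain under 50%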;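 further: plate controls were neutral control wells for no effect and wells lacking membranes for full effect; tested at 10 µM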
Target sequence (Q03530 whole entry, looked up): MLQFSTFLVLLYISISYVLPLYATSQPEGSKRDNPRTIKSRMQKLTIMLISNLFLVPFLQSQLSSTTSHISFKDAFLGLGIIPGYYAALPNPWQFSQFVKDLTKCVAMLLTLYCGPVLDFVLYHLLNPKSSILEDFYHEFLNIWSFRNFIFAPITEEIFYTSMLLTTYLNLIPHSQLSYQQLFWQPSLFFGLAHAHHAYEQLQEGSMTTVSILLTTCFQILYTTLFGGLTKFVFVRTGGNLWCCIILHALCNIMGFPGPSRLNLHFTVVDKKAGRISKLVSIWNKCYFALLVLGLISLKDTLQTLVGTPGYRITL
MT1-MMP act inh: MT1-MMP (human) activation inhibition | P50281 | GFP/RFP ratio change, % at 20 µM | actives 0.061% (n = 360,000) | HT1080 RFP-PRO-GFP cells, GFP/RFP ratio fluorescence, overnight; percent of plate control window, DMSO zero;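 active means GFP/RFP ratio change of at least 30% with cell ATP level not reduced by more than half and red fluorescence within 50% of control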; further: strong numbers were not always called active
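Assay system: HT1080 RFP-PRO-GFP cells | Dosing: 20 µM single dose, 1% DMSO | Incubation: Cells overnight before dosing, compound overnight, 37 °C, 5% CO2 | Evaluation: GFP/RFP fluorescence ratio | Control set: DMSO-only wells and HT1080 RFP-L50D-GFP cell wells as references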
Env fusion inh: inhibitors of HIV Env-mediated cell fusion | HeLa-JRFL Env/CEM21 cell fusion, luciferase | inhibition, % at 12.3 µM | actives 1.1% (n = 360,000) | AID 651610;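 active means mean replicate inhibition score of at least 50 and every replicate individually at or above 50; inconclusive means only one of the two criteria met; inactive means mean below 50 and not all replicates reaching 50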;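 further: 0% = plate neutral controls and 100% = maraviroc near 300 nM; one replicate is shown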
UUG fidelity: modulators of start codon recognition fidelity in yeast | activity score, % at 18.7 µM | actives 0.13% (n = 350,000) | S. cerevisiae UUG-firefly luciferase reporter, luminescence/redox ratio;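 active means replicate mean at a twofold rise or more, about +100% in these data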;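 further: firefly luciferase made from a UUG start codon reports start codon fidelity; reporter light over untreated wells divided by growth signal over untreated wells; some hits fall short of that in this replicate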
eIF4H FP inh retest: further read-out of eIF4H FP inh, marked with its call; inhibition, %; compound at 20 µM; confirmation average;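 mean of two retest wells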
PABP polyA inh retest: second read-out of PABP polyA inh, no call of its own (marks repeat the call); inhibition, %; compound at 20 µM; confirmation repeats;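 mean of two retest wells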
MT1-MMP act inh RFP: second read-out of MT1-MMP act inh, no call of its own (marks repeat the call); RFP signal change, %; measured here: RFP expression control read;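 0 = vehicle wells; hits needed this value within 50% of zero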
* = called active by the depositor; i = inactive; ? = inconclusive; · = no result given.

Start of the data: the first three entries, ahead of the listing:
SMILES	CSC inhib	eIF4H FP inh	PABP polyA inh	Rce1 inh	MT1-MMP act inh	MT1-MMP act inh RFP	Env fusion inh	UUG fidelity	others
O=S(=O)(c1cnc[nH]1)N1CCN(C(c2ccc(F)cc2)c2ccc(F)cc2)CC1	-0.5	1.4	2.7	i	-9.0	-4.9	-1.2	-7.5
Cc1ccc(CS(=O)(=O)Cc2ccc(C(=O)NCc3cccs3)o2)cc1	7.9	3.2	14.3	i	-1.7	-2.2	19.3	4.5
CCCC(C(=O)NCc1ccco1)N(Cc1ccco1)C(=O)CNS(=O)(=O)c1ccccc1 (configuration not stated)	-4.0	-4.2	-3.3	i	-1.6	1.6	7.8	8.8

The list itself, from the start:
SMILES	CSC inhib	eIF4H FP inh	PABP polyA inh	Rce1 inh	MT1-MMP act inh	MT1-MMP act inh RFP	Env fusion inh	UUG fidelity	others
O=S(=O)(c1cnc[nH]1)N1CCN(C(c2ccc(F)cc2)c2ccc(F)cc2)CC1	-0.5	1.4	2.7	i	-9.0	-4.9	-1.2	-7.5
Cc1ccc(CS(=O)(=O)Cc2ccc(C(=O)NCc3cccs3)o2)cc1	7.9	3.2	14.3	i	-1.7	-2.2	19.3	4.5
CCCC(C(=O)NCc1ccco1)N(Cc1ccco1)C(=O)CNS(=O)(=O)c1ccccc1 (configuration not stated)	-4.0	-4.2	-3.3	i	-1.6	1.6	7.8	8.8
O=C(Nc1ccc(C(F)(F)F)cc1)c1ccc2nc[nH]c2c1	-8.0	4.7	7.3	·	4.4	-1.2	18.1	-13.2
COCc1cccc(NC(=O)CCc2ccccc2)c1	-12.2	5.0	12.6	i	4.0	0.5	3.4	·
COc1cccc(/C=C/c2ccc3cccc(O)c3n2)c1OC	65.7	19.7	6.6	i	0.1	-14.6	-82.5	-22.7
Cc1cccc(C)c1-n1ncc(C(=O)NC2CCCC2)c1C1CCNCC1	5.6	7.3	-2.8	i	2.6	4.1	-3.9	-2.5
COc1cccc(/C=N/NC(=O)c2c(C)nc3ccc(Br)cn23)c1	-3.0	4.4	0.9	i	-0.2	-0.7	-4.1	-14.1
Cc1cc(/C=C2\C(=N)N3N=C(CC(=O)N4CCOCC4)SC3=NC2=O)c(C)n1-c1ccccc1	0.4	0.3	2.1	i	-1.8	-1.2	0.8	7.0
O=C1c2ccccc2C(O)N1CCN1CCOCC1 (configuration not stated)	8.4	1.5	-7.0	i	1.2	5.7	4.7	-19.0
CN(C)c1nc(=NCc2ccco2)ss1	19.0	-3.1	4.7	i	1.9	7.5	·	-18.5
COc1ccc(-c2csc(N(CCCN3CCOCC3)C(=O)CCl)n2)cc1	-13.1	-12.2	8.8	i	-1.4	-2.3	-0.4	-6.4
Cc1ccc(C(C(=O)NC2CCCCC2)N(C(=O)Cc2c[nH]c3ccccc23)c2ccccc2C)o1 (configuration not stated)	-0.7	2.9	-4.2	i	-1.4	2.6	4.0	·
CC(C)Nc1nc(NC(C)C)nc(OCCOC(=O)Nc2ccccc2)n1	-0.5	-1.6	-12.5	i	-4.6	-2.3	46.4	1.5
COc1ccc(C(=O)Nc2ccc(N3CCCC3)cc2)cc1OC	25.6	4.0	15.5	i	2.7	1.5	-53.7	-1.9
Oc1cccc2c(NC(=S)Nc3ccc(OC(F)F)cc3)cccc12	1.9	?	17.6	i	-23.1	-3.8	-8.0	·
COc1ccc(CC(=O)Nc2cccc(S(=O)(=O)N3CCOCC3)c2)cc1OC	·	·	·	·	-0.6	-28.8	7.2	-5.2
CCOc1ccc2cc(C#N)c(SCC(=O)OC)nc2c1	4.1	8.3	13.8	i	3.1	0.8	-335.5	-14.6
COc1cccc(OCCNS(=O)(=O)c2ccccc2[N+](=O)[O-])c1	-6.5	·	·	·	0.4	0.5	·	8.7
Cc1cc(C(=O)N/N=C/c2ccc(-c3cccc(Cl)c3)o2)n[nH]1	-12.7	5.5	-7.5	i	-2.3	1.3	-6.2	-7.8
O=C(Nc1cccc(NC(=O)c2ccc3c(c2)OCO3)c1)c1ccccc1	8.0	10.1	-11.9	i	0.1	3.1	9.4	·
O=C(CSc1n[nH]c(-c2ccccc2)n1)NCc1cccc(C(=O)O)c1	-1.2	0.7	-0.4	i	3.4	7.3	-16.0	·
CC(=O)c1ccc(N2CCN(C(=O)CCCn3c(=O)[nH]c4ccccc4c3=O)CC2)cc1	-3.6	-2.2	-13.1	·	10.9	-0.3	8.8	·
O=C(CCCOc1ccc(Cl)cc1Cl)N/N=C/c1ccccc1	52.0	-15.8	4.4	i	-1.3	1.6	-4.1	1.6
O=C(NCc1ccco1)c1ccc2c(c1)C(=O)c1ccccc1-2	9.9	1.6	18.3	i	9.5	-0.5	-5.5	-5.0
Cc1cc(C(=O)N2CCCC(N3CCN(c4cccc(C(F)(F)F)c4)CC3)C2)nn1C (configuration not stated)	-5.9	·	·	i	1.8	1.2	5.4	-6.1
CCCN1C(=O)C2(SC(NC(C)=O)=NN2C(C)=O)c2cc(C)cc(C)c21 (configuration not stated)	-14.8	2.5	6.8	i	-0.6	6.0	-7.1	8.0
Cc1c(NC(=O)C(C)OC(=O)C23CC4CC(CC(Br)(C4)C2)C3)c(=O)n(-c2ccccc2)n1C (configuration not stated)	-4.2	-20.4	1.4	i	1.4	0.9	2.2	·
O=C(OCc1ccccc1)N1CCC2CC1c1ccc(/C=C/CCCCl)cc12 (configuration not stated)	·	·	·	·	1.1	-4.9	18.8	-8.5
Cc1cc(NC(=O)Nc2ccc3c(ccn3C)c2)sn1	-7.3	·	·	i	-4.4	-3.0	-36.2	5.7
COC(=O)CCCC(=O)N1CCCC(C(=O)c2ccc(-c3ccccc3)cc2)C1 (configuration not stated)	-2.7	1.6	3.5	i	1.4	2.1	17.3	0.8
O=C(Nc1ccccc1F)c1ccccc1-c1ccccc1	-6.2	-14.1	35.4	i	-1.8	-2.9	9.2	·
CC1(C)CC(=O)NC=C(c2ccccc2)C1	-6.6	-7.8	-9.5	i	0.8	4.1	·	-4.6
COc1ccc(C(c2nnnn2CC2CCCO2)N2CCN(c3ccc(F)cc3)CC2)cc1 (configuration not stated)	16.2	-13.6	26.0	i	1.1	3.0	·	-5.4
COc1ccc2cc(/C(C)=N/NC(=S)Nc3cc(S(=O)(=O)N4CCOCC4)ccc3N3CCOCC3)ccc2c1	-2.1	4.1	-6.4	i	·	·	·	·
CCC(=O)N1c2ccc(S(=O)(=O)NC3CCCCC3)cc2CC1C (configuration not stated)	0.2	-8.4	-1.8	i	4.2	-3.2	-5.6	19.0
N#Cc1nc(Cc2ccccc2)oc1NCc1cccnc1	-11.3	1.7	-7.8	i	4.1	-0.7	·	-27.6
CCCCNC(=O)COC(=O)c1c2c(nc3ccccc13)/C(=C/c1cccs1)CC2	66.6	85.1	2.0	·	-6.0	1.3	-69.7	·	eIF4H FP inh retest=2.6;PABP polyA inh retest=23.4
Cc1cc(C)n(C(=O)c2cccc([N+](=O)[O-])c2C)n1	1.2	-1.8	-3.4	i	-3.1	0.9	7.7	-20.9
C=CCn1c(O)c(N=O)c2cc(C)ccc21	5.5	-9.2	-1.3	i	4.2	4.7	-27.7	-15.8
C#CCOCCOCCOCCNc1nc(N2CCOCC2)nc(N2CCN(C(=O)[C@H](CC(N)=O)n3cc(C(N)[C@@H](C)CC)nn3)CC2)n1 (some centres not stated)	3.1	·	·	·	4.3	5.3	-17.6	16.0
CC1(c2ccc3ccccc3c2)NC(=O)N(CC(=O)Nc2ncccc2O)C1=O (configuration not stated)	-8.5	·	·	·	2.0	1.5	·	-19.1
Cc1ccc(-c2csc(Nc3ccccc3)[n+]2CCc2ccccc2)cc1	55.3	-7.0	-7.6	i	-2.0	-14.4	14.1	·
O=S(N1CCCCCC1)C12CC3CC(CC(C3)C1)C2 (configuration not stated)	-27.9	-5.7	-8.2	i	-1.1	0.6	·	-3.6
COc1ccc(S(=O)(=O)N2CCCCCC2)cc1NC(=O)Cc1ccccc1F	4.0	-0.8	9.3	i	-1.7	-4.5	41.3	·
COc1ccc(CN(C)C(=O)COC(=O)c2cc([N+](=O)[O-])ccc2N2CCCC2)c(OC)c1OC	0.9	·	·	·	0.9	-1.1	6.1	1.7
Cc1cccc(C)c1NC(=O)CN(C)C(=O)c1cc([N+](=O)[O-])ccc1N1CCOCC1	10.1	-12.7	-17.2	·	1.6	4.5	-5.2	-0.9
COC(=O)c1ccc(C2C(C(=O)c3cc4ccccc4o3)=C(O)C(=O)N2c2cc(C)on2)cc1 (configuration not stated)	-29.0	?	45.6*	i	-3.1	4.4	-3.6	-12.9	PABP polyA inh retest=127.6*
O=C1CC(C(=O)N2CCc3ccccc32)CN1c1ccc(F)cc1 (configuration not stated)	·	-0.1	2.8	i	1.5	3.6	-1.0	-9.7
Nc1nnc(CCCCCc2nnc(N)s2)s1	·	8.9	-1.9	i	0.8	4.5	-47.6	·
Cn1cccc1CC(=O)N/N=C/C=C/c1ccccc1	-13.6	2.0	-2.1	i	2.1	1.2	-6.4	·
O=C(COC(=O)CCS(=O)(=O)c1ccccc1)NNC(=O)c1ccc([N+](=O)[O-])cc1	·	·	·	·	1.8	4.1	10.5	-12.7
COc1ccc(S(=O)(=O)N2CCN(C(=O)CN3C(=O)NC(C)(c4ccc5ccccc5c4)C3=O)CC2)cc1 (configuration not stated)	-1.3	·	·	i	0.3	-1.8	20.7	·
COc1ccc2[nH]c(=O)c(CNc3cccc(C)c3)cc2c1	5.3	16.7	23.4	i	-4.5	-0.8	·	1.6
O=C(O)CSc1nc2ccccc2nc1Cc1ccccc1F	-2.3	-2.4	0.1	i	0.8	4.7	19.8	·
Clc1ccccc1-c1nc2nc3ccccc3nc2n1-c1ccc2c(c1)OCO2	65.8	1.9	-10.1	i	3.7	-8.3	-46.4	-16.4
COc1ccc(OC)c(C(C(=O)NCc2ccco2)N(C(=O)Cn2nnc3ccccc32)C(C)C)c1 (configuration not stated)	-4.9	-5.0	-0.3	i	1.8	4.8	·	196.3*
C(=N\n1cnnc1)/c1cccs1	-7.9	-13.6	9.5	i	-1.5	4.9	·	-9.3
S=C(NCCN1CCOCC1)Nc1ccccc1Cl	-7.8	9.3	14.1	i	0.6	1.6	-7.3	·
CCOc1ccc(N(CC(=O)NCc2ccc3c(c2)OCO3)C(=O)c2csnn2)cc1	-15.7	-8.1	2.7	·	2.0	0.5	-10.8	-4.3

Additional structures follow:
SMILES	CSC inhib	eIF4H FP inh	PABP polyA inh	Rce1 inh	MT1-MMP act inh	MT1-MMP act inh RFP	Env fusion inh	UUG fidelity	others
CCCN(CC1CC1)c1nc(N)c(C#N)c(CC#N)c1C#N	5.8	-2.2	1.1	i	0.5	-3.0	·	-4.9
O=C(Nc1nc2ccccc2s1)C1CC(=O)N(c2ccccc2)C1 (configuration not stated)	6.7	8.2	-4.0	i	-3.0	-9.2	24.1	-8.3
COc1ccc(NC(=O)C2CCCN(C(=O)c3ccc(Cl)cc3)C2)cc1Cl (configuration not stated)	·	·	·	·	6.4	-14.4	9.7	-18.5
COc1ccc(OC)c(-c2csc(N(C)C(=O)c3ccco3)n2)c1	-8.5	9.7	-5.5	i	-4.8	0.3	-28.3	3.6
CNC(=O)c1cccc(NC(=O)c2ccccc2OCc2ccccc2)c1	-10.9	-5.0	2.9	i	0.7	0.8	-18.9	3.9
CC(C)CNC(=O)CCCc1ccccc1	-10.2	-8.6	-4.8	i	-1.9	3.1	·	-5.9
CN(C)C1=NCCN1CC1CCCCC1	3.2	·	·	·	2.5	6.2	-2.2	-22.3

Screens (PubChem BioAssay)
